Compound activity from PubChem.
NPR1 antag: Natriuretic polypeptide receptor (hNpr1) antagonism - Primary qHTS; 1.6% of 76,000 active; HEK293 hNpr1 GloSensor cGMP, ANP-stimulated luminescence; Potency, µM (highest dose often 46.3 µM), for the others: at the top dose activity change, negative = inhibition, usual class: inhibitors; Atrial natriuretic peptide receptor 1 (Homo sapiens), P16066; AID 1347048, 2019; active = well fitted inhibition curve with a large enough effect; inconclusive = small, poorly fitted or top-dose-only effect; inactive = no such curve, though single readings can be large or run the other way;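 note: nearly all actives have a fitted effect of over 60% in size; nearly all hits also lower the signal before the agonist is added; a reference antagonist and vehicle were the controls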
Target sequence (P16066 whole entry, looked up): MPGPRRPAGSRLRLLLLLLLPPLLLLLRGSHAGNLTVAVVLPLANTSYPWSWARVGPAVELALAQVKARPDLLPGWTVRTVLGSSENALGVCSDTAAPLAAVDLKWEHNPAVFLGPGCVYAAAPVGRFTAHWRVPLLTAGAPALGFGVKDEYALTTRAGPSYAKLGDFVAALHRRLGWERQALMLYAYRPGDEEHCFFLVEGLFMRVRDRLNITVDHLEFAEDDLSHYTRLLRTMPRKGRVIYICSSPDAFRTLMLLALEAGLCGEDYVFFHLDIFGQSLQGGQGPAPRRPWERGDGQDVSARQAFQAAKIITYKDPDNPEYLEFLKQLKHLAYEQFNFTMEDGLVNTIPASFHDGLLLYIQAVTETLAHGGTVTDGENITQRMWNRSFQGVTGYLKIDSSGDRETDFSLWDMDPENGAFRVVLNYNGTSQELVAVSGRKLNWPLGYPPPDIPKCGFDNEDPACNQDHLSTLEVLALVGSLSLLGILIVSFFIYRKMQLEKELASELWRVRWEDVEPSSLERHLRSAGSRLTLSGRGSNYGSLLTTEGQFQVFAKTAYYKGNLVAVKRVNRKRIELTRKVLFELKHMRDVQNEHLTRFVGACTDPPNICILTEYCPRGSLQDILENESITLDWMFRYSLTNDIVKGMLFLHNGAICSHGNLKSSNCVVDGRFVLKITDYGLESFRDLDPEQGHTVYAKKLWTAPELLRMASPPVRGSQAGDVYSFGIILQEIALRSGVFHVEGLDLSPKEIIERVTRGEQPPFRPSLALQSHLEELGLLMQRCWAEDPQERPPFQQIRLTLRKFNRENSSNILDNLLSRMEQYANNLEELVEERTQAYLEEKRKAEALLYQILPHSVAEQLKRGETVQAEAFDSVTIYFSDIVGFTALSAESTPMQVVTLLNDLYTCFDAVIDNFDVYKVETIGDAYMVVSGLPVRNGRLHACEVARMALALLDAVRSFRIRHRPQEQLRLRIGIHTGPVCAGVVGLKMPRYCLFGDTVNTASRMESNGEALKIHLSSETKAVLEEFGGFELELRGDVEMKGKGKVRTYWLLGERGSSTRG
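Compound pre-incubated 30 min at room temperature on GloSensor-loaded HEK293 cells stably carrying hNpr1 and the pGS-40F cGMP biosensor. Stimulation uses hNppA at 0.1 nM final; luminescence is taken at baseline and 20 min post-agonist.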
Active calls of the source: *; ? = inconclusive; [ ] = another dose, or the depositor's remark. % is set by controls: 0 for no effect and ±100 for the full control effect; potency is the fitted concentration of half-maximal effect.

SMILES	NPR1 antag
CC(C)CCNC(=O)c1cnc2c(c1)N(C(=O)Cc1cn(C)c3ccccc13)CCC2	-4%[70.6 µM]
O=C(NCc1ccc(Cl)cc1)c1ccn2cncc2c1	-2%[70.6 µM]
CC(C)c1noc(C2Cc3ccccc3N2C(=O)Nc2ccc3c(c2)OCCO3)n1 (stereo unspecified)	-14%
COc1ccc2[nH]c(C(=O)NCC(=O)N3CCCCCCNC(=O)CC3c3ccccc3)cc2c1 (stereo unspecified)	-12%
CC(=O)N1CCN(C(=O)c2cn(CCN)nn2)[C@H]2CS(=O)(=O)C[C@H]21	-3%
CN(C)C[C@@H]1CN(C2CCOCC2)C[C@H]1NC(=O)C1CC1	0%
CCNC(=O)c1ccc2c(c1)C1(CCN(CC3CC3)C1)CN2Cc1ccccc1 (stereo unspecified)	-8%[70.6 µM]
O=C(Nc1cc(F)ccc1F)N1CCCC1c1nncn1-c1ccccc1 (stereo unspecified)	3%
CC(C)CN1C(=O)c2cccn2CC1CNC(=O)c1ccc2ccccc2n1 (stereo unspecified)	-6%
COc1ccc(-c2cnc3[nH]cc(CC(=O)NCCN(C)C)c3c2)cc1	-12%[70.6 µM]
CCN1C(=O)CCN(S(=O)(=O)CC)CC12CCOCC2	-1%
COCCNc1ncccc1-c1noc([C@@H]2CCCN2Cc2ccccn2)n1	3%[70.6 µM]
CN1C(=O)CCC2(CNC(=O)c3ccccc3)CCCC=C12 (stereo unspecified)	1%
Cc1ccc(C)c(C(=O)N2CCCN(C)c3ccccc32)c1	-1%
COc1cccc(OC)c1C(=O)N1C(C(=O)NCC(C)C)COC12CCCC(C)C2 (stereo unspecified)	3%
Cc1ncsc1CN1C(=O)CO[C@H](c2ccc(NC(=O)c3cccc(C#N)c3)cc2)[C@H]1CO	7%
O=c1[nH]ccn1C1CCN(Cc2cccnc2)CC1	4%[70.6 µM]
COCCNC(=O)C1CC(c2ccccc2)CN(C(=O)c2ccccc2)C1 (stereo unspecified)	-2%
COc1ccc(S(=O)(=O)Nc2ccc(C)n(CC(=O)Nc3ccccc3)c2=O)cc1	-1%
COc1ccc(NC(=O)c2ccc3c(c2)C2(CCCN(C)C2)CN3C)cc1 (stereo unspecified)	0%[70.6 µM]
O=C(c1cc(Cl)ccc1F)N1CCC[C@H]1c1nc(-c2ccc(F)cc2)no1	-13%
CCCNC(=O)NC[C@H]1O[C@@H]2C[C@@H](CC(=O)N3CCOCC3)O[C@@H]2[C@@H]1O	0%[70.6 µM]
CCC(C)N1Cc2cc(NC(=O)c3ccc([N+](=O)[O-])cc3)ccc2OCC1=O (stereo unspecified)	-22%
CN1[C@@H](CCC(=O)NCc2cccnc2)CNC(=O)[C@@H]2[C@H]1CCN2Cc1nc2ccccc2n1C	4%
CC1(COc2ccccc2)COc2ccc(C(=O)NCc3ccc4c(c3)OCO4)cc2N1 (stereo unspecified)	-29%[70.6 µM]
(listing goes on)
SMILES	NPR1 antag
COc1ccc(CN2CCN3C(=O)N(C4CCOCC4)C[C@H]3C2)cc1	-14%[70.6 µM]
CC(C)(C)c1coc([C@@H]2COCCN2Cc2ccc(F)cc2)n1	7%[70.6 µM]
COCC(=O)N1CCN2C(=O)N(C(C)C)C(=O)[C@H]2C1	1%[70.6 µM]
COc1ccc(-c2cc(CC3(NCC(C)(C)C)COC3)no2)cc1	6%[70.6 µM]
Cc1nccn1CCNC(=O)c1ccc(CC2CCN(S(C)(=O)=O)CC2)cc1	1%
Cc1noc(C(C)N(C)C(=O)c2cc(COc3ccccc3F)[nH]n2)n1 (stereo unspecified)	5%
CC(C)NC(=O)NC[C@H]1COCc2nc3cc(C(F)(F)F)ccc3n21	-9%[70.6 µM]
COc1ccc(C(=O)N2CCCC(n3cc(-c4nc(C(C)C)no4)nn3)C2)cn1 (stereo unspecified)	0%
CCN1C(=O)COC[C@@H]1[C@H](O)c1ccc(NC(=O)c2cccc(F)c2)cc1	-10%[70.6 µM]
O=C(NCCc1ccc(Cl)cc1)c1nc(-c2cccc(C(F)(F)F)c2)c2cnccn12	-2%
CO[C@H]1COCCN(C(=O)c2ccc(F)cc2)C1	-3%[70.6 µM]
O=S(=O)(c1cccnc1)N1CCCC2(C1)Nc1cccnc1NC2=NCc1ccccc1 (stereo unspecified)	-2%
CCC(CC)C(=O)N1CCC(N2C(=O)C3(CCCCC3)C2c2ccncc2)CC1 (stereo unspecified)	3%
Cc1noc(C)c1CN1CCN(C(=O)C2CCCN2)CC1 (stereo unspecified)	4%
CC(=O)Nc1ccc(S(=O)(=O)N2C[C@@H]3C[C@H](C2)c2ccc(-c4ccccc4C)c(=O)n2C3)cc1	2%
COc1ccccc1C(=O)N1CCC2(C1)NC(=O)c1ccccc1O2 (stereo unspecified)	22%
NC(=O)Cc1c[nH]c2ncc(-c3cccc(CO)c3)cc12	2%[70.6 µM]
Cc1ccsc1C(=O)C1CCCN(Cc2ccc(C#CC(C)(C)O)cc2)C1 (stereo unspecified)	-24%
COc1nc2c(cc1CNC(=O)CN1CCOCC1)C(=O)N(C1CCCC1)C2	-2%
CCN1C(=O)CCN(C(=O)N(C)C)CC12CCOCC2	0%
CCn1cc(C(=O)N[C@@H]2CN(Cc3ccccc3)C[C@H]2CN(C)C)cn1	1%
CCCCCNC(=O)c1nnn2cc(C)[nH]c(=O)c12	-11%
CCOc1cc(=O)n2c(c1C(=O)Nc1ccc(Cl)cc1)CCCC2	-7%
CN(Cc1ccccc1C(F)(F)F)C(=O)c1ccc(C(F)(F)F)cc1	23%
CN(C1CCOCC1)C1CCN(C(=O)c2ccc(Cl)cc2)CC1	-2%
Continuation.
SMILES	NPR1 antag
O=C(NCC(O)CO)c1ccc(OC2CCN(CCc3ccccc3)CC2)cc1 (stereo unspecified)	-1%
O=C(Cc1ccc(F)cc1)N1CCC2(CC1)NC(=O)N(Cc1ccc(F)cc1)C2=O	-25%
FC(F)(F)c1ccc(CN2CC[C@H](c3nc4cc(Cl)ccc4o3)C2)cc1	?
CC(=O)N1CCN([C@H]2[C@@H]3OC[C@@H](O3)[C@@H](NCc3cnc4ccccc4c3)[C@@H]2O)CC1	4%[70.6 µM]
COc1ccc(-c2ccc3ncc(Nc4cccnc4OC)n3n2)cc1OC	-1%[70.6 µM]
CN1CC2(CCN(C(=O)NCc3ccco3)CC2)CC(c2ccccc2)C1=O (stereo unspecified)	3%
CC(=O)Nc1ccc2c(c1)S(=O)(=O)N=C(CC(C)C)N2c1ccccc1	-1%
Cc1cccc(C(=O)N2CCC(Oc3cccnc3)C2)c1 (stereo unspecified)	8%
O=C(Nc1ccc(F)cc1F)N[C@H]1C[C@H]2C(=O)NC[C@@H](CCC(=O)N3CCC(O)CC3)N2C1	2%
CNC(=O)[C@@H]1CN(C(=O)c2ccc3c(c2)OCO3)C[C@H]1c1nc(COC)no1	-6%
CC(C)(C)C(=O)N1CCC(c2nn(-c3ccc(F)cc3)c(=O)[nH]2)CC1	13%[70.6 µM]
CCN(CC)c1cc(CCC(=O)N2CCN(c3ncccn3)CC2)ccn1	-6%
COCC1CN(Cc2ccc(OC(F)(F)F)cc2)CC12CCNCC2 (stereo unspecified)	-9%
COc1ccc(C(C)NC(=O)CN2C(=O)C(c3ccccc3)=NC2(C)C)cc1 (stereo unspecified)	-1%
Cc1c(CN(C)Cc2cccc(C(=O)Nc3ccc(C#N)cc3)c2)cnn1C	-12%
COCCOCC(=O)N1CCC(C(=O)N2CCCCCCNC(=O)CC2)CC1	-1%
C=CCN1CC(C(=O)N2CCN(Cc3ccccc3C#N)CC2)CC1=O (stereo unspecified)	3%
CC(C)CNC(=O)N1CCC(N2C(=O)C3(CCCCC3)C2c2ccncc2)CC1 (stereo unspecified)	5%
CCCN1C(=O)C(CC(=O)N2CCCCCC2)Sc2ncccc21 (stereo unspecified)	-13%
CCc1noc(-c2ccn3c(CNC(=O)c4nccc5ccccc45)nnc3c2)n1	-8%
CCN(CC)C(=O)C(NC(=O)c1cccs1)C1CCN(C(=O)CCc2ccccc2)CC1 (stereo unspecified)	1%
Cc1ccc(C(=O)NCC(=O)N2CCCCCNC(=O)CC2c2ccccc2)s1 (stereo unspecified)	-2%
N#Cc1cccc(C(=O)N2CCCC(n3cc(-c4nc(C5CC5)no4)nn3)C2)c1 (stereo unspecified)	1%
CNC1CCN(c2ccc(-c3nc(CCCc4ccccc4)no3)cn2)CC1	-5%
CNC(=O)c1cc[nH]c1C1CCCN(Cc2scnc2C)C1 (stereo unspecified)	7%

3 consecutive entries out of the list so far:
SMILES	NPR1 antag
O=C(NCC(O)CO)c1ccc(OC2CCN(CCc3ccccc3)CC2)cc1 (stereo unspecified)	-1%
O=C(Cc1ccc(F)cc1)N1CCC2(CC1)NC(=O)N(Cc1ccc(F)cc1)C2=O	-25%
FC(F)(F)c1ccc(CN2CC[C@H](c3nc4cc(Cl)ccc4o3)C2)cc1	?

Among those listed so far, these have a cyano group:
SMILES	NPR1 antag
Cc1ncsc1CN1C(=O)CO[C@H](c2ccc(NC(=O)c3cccc(C#N)c3)cc2)[C@H]1CO	7%
Cc1c(CN(C)Cc2cccc(C(=O)Nc3ccc(C#N)cc3)c2)cnn1C	-12%
C=CCN1CC(C(=O)N2CCN(Cc3ccccc3C#N)CC2)CC1=O (stereo unspecified)	3%
N#Cc1cccc(C(=O)N2CCCC(n3cc(-c4nc(C5CC5)no4)nn3)C2)c1 (stereo unspecified)	1%

5 compounds picked at random from those above:
SMILES	NPR1 antag
O=C(Nc1ccc(F)cc1F)N[C@H]1C[C@H]2C(=O)NC[C@@H](CCC(=O)N3CCC(O)CC3)N2C1	2%
CNC(=O)[C@@H]1CN(C(=O)c2ccc3c(c2)OCO3)C[C@H]1c1nc(COC)no1	-6%
CNC1CCN(c2ccc(-c3nc(CCCc4ccccc4)no3)cn2)CC1	-5%
Cc1ccc(C(=O)NCC(=O)N2CCCCCNC(=O)CC2c2ccccc2)s1 (stereo unspecified)	-2%
CC(C)CNC(=O)N1CCC(N2C(=O)C3(CCCCC3)C2c2ccncc2)CC1 (stereo unspecified)	5%

Following part
SMILES	NPR1 antag
COc1ccc(-c2ccccc2)cc1N1C(=O)[C@@H]2C[C@H]1CN2C(=O)[C@@H]1CCCO1	-7%
Cn1c(Cn2cccn2)nnc1C1CC(NC(=O)CCN2CCCO2)C1 (stereo unspecified)	21%
O=C(NC1CCN(C(=O)N2CC3CC(C2)[C@H]2CCCC(=O)N2C3)CC1)c1cccs1 (stereo partly specified)	-3%
O=C([C@@H]1C[C@H](F)CN1S(=O)(=O)Cc1ccccc1)N1CCCCC1	2%
Cc1ccc(CN2CCCC(C(=O)N3CCN(c4ccccn4)CC3)CCNC(=O)CC2)s1 (stereo unspecified)	-14%
COc1ccc(-c2ccnc(N[C@H]3CO[C@H]4[C@@H]3OC[C@@H]4NS(=O)(=O)c3cccs3)n2)cc1	?
CCN(CC)CC[C@H]1CN(C(=O)Cc2ccc(OC)cc2)CC[C@H]1CC(=O)O	7%[70.6 µM]
O=C(NCc1csc(-c2ncccn2)n1)C1COc2ccccc2C1 (stereo unspecified)	4%
COc1ccc(CC(=O)N2CC(c3nnc(-c4ccncc4)o3)C3(CCOCC3)C2)cc1 (stereo unspecified)	5%
CCC1(O)CCC12CCN(C(=O)c1cccs1)CC2 (stereo unspecified)	4%
CCc1noc(-c2cccn3c(CNC(=O)c4ccccn4)nnc23)n1	-23%
COCCOC1CCN(C(=O)c2cccc(OC)c2)CC1	4%
O=C(COc1ccccc1)Nc1ccc(-c2nnc3n2CCCC3)cc1	1%
Cc1cc(=O)n(CC(=O)Nc2cccc(F)c2)c(-c2ccc(F)cc2)n1	-1%
O=C1Nc2ccccc2CC12CCN(CC1CCCCC1)C2 (stereo unspecified)	-11%[70.6 µM]
Cn1cc(-c2cnc(Nc3ccc(F)cc3)c3c2CCO3)cn1	1%[70.6 µM]
COc1ccc(CNC(=O)C[C@@H]2c3nc(NC(=O)c4cccs4)sc3C[C@@H]3[C@](C)(CO)[C@H](O)CC[C@]32C)cc1	-3%
O=C(N[C@@H]1C[C@H](Cn2cc(C3CC3)nn2)[C@@H](O)[C@H]1O)c1ccccc1	0%[70.6 µM]
O=C(O)[C@H]1C[C@@H](C(=O)N2CCCC2)CN(Cc2ccc(F)cc2F)C1	-1%
CCn1ncnc1C(C)NC(=O)c1coc(COc2ccc3c(c2)OCO3)n1 (stereo unspecified)	9%
C=CCO[C@@H]1CCN2C(=O)c3cc(-c4ccccc4)ccc3NC(=O)[C@H]12	-9%[70.6 µM]
O=C1COc2ccc(-c3ccccc3)nc2CN1Cc1ccccc1F	-11%[70.6 µM]
COc1cccc(-c2noc(CC3CCN(C(=O)c4cc(OC)c(OC)c(OC)c4)CC3)n2)c1	-18%
CCOC(=O)C1=C(C)N=C2SC=C(CC(=O)NCc3ccco3)N2C1c1ccccc1Cl (stereo unspecified)	11µM*
CCOc1cc(=O)n2c(c1C(=O)Nc1ccccc1CC)CCCC2	1%
O=C(C[C@@H]1O[C@H](CNC(=O)c2ccccc2)[C@@H](O)[C@H]1O)NCCN1CCOCC1	5%[70.6 µM]
CNC(=O)C1(N2CCC[C@H]2C(=O)N2CCCCCC2)COC1	-2%[70.6 µM]
CCc1nncn1C1CCN(C(=O)Nc2ccc(F)c(Cl)c2)C1 (stereo unspecified)	2%
O=C(c1ccc(Cn2ccn3nc4c(c3c2=O)CCCC4)cc1)N1CCN(c2ccccc2F)CC1	-1%
C[C@@H](NC(=O)[C@@H]1C[C@@H](NS(=O)(=O)c2cn(C)cn2)CCN1C(=O)c1ccco1)C(N)=O	0%

Not all compounds are listed. The share of hits here may be higher or lower than overall.
